p53 mut binder: mutant p53 (human) binding; hit rate 0.4% among 17,000; small molecule microarray binding, anti-GST fluorescence; calls only;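 active = compounds whose four printed spots each glow above background more than chance allows, each with a p-value under 7%; compounds were printed on slides so no solution concentration is given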;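 also: about 2 pmol printed per array spot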
STAT3 binder: binders of human STAT3; Small molecule microarray, His-STAT3 binding, anti-His fluorescence; calls only; hit rate 0.2% among 17,000;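 active = compounds whose four printed spots each show fluorescence over background unusually high for their array block, chance value under 7%; compounds were printed on slides so no solution concentration is given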;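 also: about 2 pmol printed per array spot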
Target sequence (P40763 whole entry, looked up): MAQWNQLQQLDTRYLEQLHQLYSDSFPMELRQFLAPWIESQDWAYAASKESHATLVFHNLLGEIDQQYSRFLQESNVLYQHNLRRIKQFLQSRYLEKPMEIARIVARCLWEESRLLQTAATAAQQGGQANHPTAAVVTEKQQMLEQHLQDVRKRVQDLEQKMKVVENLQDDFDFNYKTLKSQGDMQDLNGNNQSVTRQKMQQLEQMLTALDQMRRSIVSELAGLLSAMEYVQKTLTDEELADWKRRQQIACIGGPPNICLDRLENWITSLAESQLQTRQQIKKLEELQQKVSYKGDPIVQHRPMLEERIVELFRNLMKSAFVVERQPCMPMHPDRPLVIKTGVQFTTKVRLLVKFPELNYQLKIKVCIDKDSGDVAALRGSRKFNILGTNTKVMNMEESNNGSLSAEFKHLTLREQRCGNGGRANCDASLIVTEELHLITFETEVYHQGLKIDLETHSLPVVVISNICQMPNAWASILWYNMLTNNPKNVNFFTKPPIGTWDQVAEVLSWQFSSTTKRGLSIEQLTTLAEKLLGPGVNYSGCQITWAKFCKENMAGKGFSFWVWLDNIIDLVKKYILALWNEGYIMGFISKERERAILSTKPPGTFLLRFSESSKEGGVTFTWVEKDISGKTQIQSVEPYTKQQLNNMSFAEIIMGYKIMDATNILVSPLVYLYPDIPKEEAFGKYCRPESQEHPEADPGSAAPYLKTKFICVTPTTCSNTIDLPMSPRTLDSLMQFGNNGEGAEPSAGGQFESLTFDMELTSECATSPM
c-Myc SMM: c-Myc (human) binding; hit rate 1.5% among 17,000; calls only; P01106; small molecule microarray, His-c-Myc binding, anti-His fluorescence;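 active = spot fluorescence over background with P-value below 7% in all four replicate spots, showing protein binding; compounds were printed on slides so no solution concentration is given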;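 also: score is binary with 100 for all four spots passing and 0 otherwise; about 2 pmol printed per array spot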
ID4 SMM: ID4 (human) binding; hit rate 1.2% among 31,000; P47928; calls only; small molecule microarray, Flag-ID4 binding, fluorescence F/B; AID 624137;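 active = spot signal over background at p below 0.07 in all four prints; compounds were printed on slides so no solution concentration is given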;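 also: a binder raises fluorescence above local background on the spot; about 2 pmol printed per array spot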
Target sequence (P47928 whole entry, looked up): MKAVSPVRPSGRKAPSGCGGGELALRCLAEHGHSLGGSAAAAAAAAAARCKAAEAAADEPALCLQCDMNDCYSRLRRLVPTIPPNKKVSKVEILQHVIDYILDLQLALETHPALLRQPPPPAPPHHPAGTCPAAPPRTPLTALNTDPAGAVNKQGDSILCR
Calls only; i = inactive; / = no result given; + = active, no number. A portion of the library (hit frequency here may not be typical).

SMILES	p53 mut binder	STAT3 binder	c-Myc SMM	ID4 SMM
C[C@H]1CN([C@@H](C)CO)C(=O)Cc2cc(NC(=O)C3CC3)ccc2O[C@H]1CN(C)S(=O)(=O)c1cn(C)cn1	i	i	i	i
CN1C2CCC1CC(NC(=O)c1nn(C)c3ccccc13)C2 (stereo not drawn)	i	i	i	i
C[C@@H]1CCCCO[C@@H](CN(C)Cc2ccccc2)[C@H](C)CN([C@@H](C)CO)C(=O)c2cc(NS(=O)(=O)c3ccccc3)ccc2O1	i	i	i	i
C[C@H](CO)N1C[C@H](C)[C@@H](CN(C)Cc2ccc(C(=O)O)cc2)Oc2ccc(NC(=O)Cn3cnnn3)cc2CC1=O	i	i	i	/
CCN1CCN(C(=O)C(C)N(c2ccccc2)S(C)(=O)=O)CC1 (stereo not drawn)	i	i	i	i
COc1ccccc1-c1nc(SCC(=O)O)n[nH]1	i	i	i	i
C[C@@H]1CN([C@@H](C)CO)C(=O)Cc2cc(NC(=O)Cc3cn(C)c4ccccc34)ccc2O[C@@H]1CN(C)C(=O)Nc1ccccc1	i	i	i	i
CC(=O)c1ccc(NC(=O)COc2ccccc2C(N)=O)cc1	i	i	i	i
COc1cc(OC)cc(-c2nnc(SCC(=O)Nc3ccccc3)o2)c1	i	i	i	i
C[C@@H]1CN([C@H](C)CO)C(=O)c2cc(NC(=O)CCC(F)(F)F)ccc2O[C@@H]1CN(C)C	i	i	i	i
CC(C)NC(=O)Nc1ccc2c(c1)C(=O)N([C@H](C)CO)C[C@H](C)[C@@H](CN(C)C(=O)Nc1ccccc1)OCCCC[C@H](C)O2	i	i	i	i
C[C@@H]1CCCCO[C@H](CN(C)C(=O)CCCN(C)C)[C@@H](C)CN([C@H](C)CO)C(=O)c2cc(NS(=O)(=O)c3ccccc3)ccc2O1	i	i	i	i
C[C@H]1CN([C@@H](C)CO)C(=O)Cc2cc(N(C)C)ccc2O[C@@H]1CN(C)C(=O)Nc1cccc2ccccc12	i	i	i	i
Cc1ccc(S(=O)(=O)N(C)C[C@H]2OCCCC[C@H](C)Oc3ccc(NC(=O)NC4CCCCC4)cc3C(=O)N([C@H](C)CO)C[C@H]2C)cc1	+	i	+	/
C[C@H](CO)N1C[C@H](C)[C@@H](CN(C)C(=O)Nc2ccccc2)Oc2c(NC(=O)c3ccncc3)cccc2C1=O	i	i	i	i
CNC[C@@H]1Oc2ccc(N(C)C)cc2CC(=O)N([C@H](C)CO)C[C@H]1C	i	i	i	i
COC(=O)c1ccc(NC(=O)C(C)N(c2ccc(C)cc2)S(C)(=O)=O)cc1 (stereo not drawn)	i	i	i	i
C[C@@H]1CCCCO[C@H](CN(C)Cc2ccncc2)[C@@H](C)CN([C@H](C)CO)C(=O)c2cc(NC(=O)c3ccncc3)ccc2O1	i	i	i	i
Cc1cccc(NC(=O)COc2ccc(S(=O)(=O)N3CCCCC3)cc2Cl)c1C	i	i	i	i
COC(=O)c1ccccc1NC(=O)C(C)Oc1ccccc1 (stereo not drawn)	i	i	i	i
C=CCNC(=O)[C@H]1[C@@H]2C(=O)O[C@@H](c3ccccc3)[C@@H](c3ccccc3)N2[C@@H](c2ccc(OCCO)cc2)[C@]12C(=O)N(C(=O)OCCOC)c1ccc(C#CCC(C(=O)OC)C(=O)OC)cc12	i	i	i	/
C[C@H](CO)N1C[C@H](C)[C@@H](CN(C)C(=O)NC2CCCCC2)Oc2c(NC(=O)c3ccncc3)cccc2C1=O	i	i	i	i
C[C@@H]1CN([C@H](C)CO)C(=O)CCCn2cc(nn2)CO[C@H]1CN(C)C(=O)Nc1ccccc1F	i	i	i	i
O=C(CC1(O)C(=O)N(C/C=C/c2ccccc2)c2ccccc21)c1ccccn1 (stereo not drawn)	i	i	i	i
CCO[C@H]1OC(C(=O)N2CCN(C)CC2)=C[C@@H](c2ccc(Br)cc2)[C@@H]1CCCO	i	i	i	i

4 structures from above, arranged by formula weight, low to high:
SMILES	p53 mut binder	STAT3 binder	c-Myc SMM	ID4 SMM
C[C@@H]1CN([C@H](C)CO)C(=O)CCCn2cc(nn2)CO[C@H]1CN(C)C(=O)Nc1ccccc1F	i	i	i	i
C[C@H]1CN([C@@H](C)CO)C(=O)Cc2cc(N(C)C)ccc2O[C@@H]1CN(C)C(=O)Nc1cccc2ccccc12	i	i	i	i
C[C@H](CO)N1C[C@H](C)[C@@H](CN(C)C(=O)NC2CCCCC2)Oc2c(NC(=O)c3ccncc3)cccc2C1=O	i	i	i	i
Cc1ccc(S(=O)(=O)N(C)C[C@H]2OCCCC[C@H](C)Oc3ccc(NC(=O)NC4CCCCC4)cc3C(=O)N([C@H](C)CO)C[C@H]2C)cc1	+	i	+	/

Other results
SMILES	p53 mut binder	STAT3 binder	c-Myc SMM	ID4 SMM
Cc1onc(-c2ccccc2)c1C(=O)NCCCn1ccnc1	i	i	i	i
Cc1noc(C)c1NC(=O)Nc1ccc2c(c1)C(=O)N([C@@H](C)CO)C[C@H](C)[C@@H](CN(C)C)O2	i	i	i	i
Cn1c2ccccc2c2nnc(SCc3ccc4nonc4c3)nc21	i	i	i	i
C[C@@H]1CCCCO[C@H](CN(C)C)[C@@H](C)CN([C@H](C)CO)C(=O)c2cc(NC(=O)Cc3ccccc3)ccc2O1	i	i	i	i
NCC(O)(CS(=O)(=O)O)c1ccc(Cl)cc1 (stereo not drawn)	i	i	i	i
C[C@@H]1CN([C@H](C)CO)C(=O)Cc2cc(NC(=O)NC3CCCCC3)ccc2O[C@@H]1CN(C)S(=O)(=O)c1cccs1	i	i	i	i
Cc1noc(C)c1NC(=O)N(C)C[C@H]1Oc2ccc(NC(=O)Cc3cn(C)c4ccccc34)cc2CC(=O)N([C@H](C)CO)C[C@H]1C	i	i	i	i
Cc1ccnc(SCC(=O)Nc2oc(-c3ccccc3)c(-c3ccccc3)c2C#N)n1	i	i	i	i
O=C(C1=C[C@@H](c2ccccc2)C[C@@H](OCc2ccc(CO)cc2)O1)N1CCN(Cc2ccc3c(c2)OCO3)CC1	i	i	i	i
COc1ccc(S(=O)(=O)N(C)C[C@@H]2Oc3ccc(NC(=O)Cc4cn(C)c5ccccc45)cc3CC(=O)N([C@H](C)CO)C[C@@H]2C)cc1	i	i	i	i
CC(C)NC(=O)N(C)C[C@H]1OCCCC[C@@H](C)Oc2ccc(NC(=O)CCC(F)(F)F)cc2C(=O)N([C@H](C)CO)C[C@@H]1C	i	i	i	i
Cc1noc(C)c1S(=O)(=O)N(C)C[C@@H]1OCCCC[C@H](C)Oc2ccc(NC(=O)CCCN(C)C)cc2C(=O)N([C@H](C)CO)C[C@@H]1C	i	i	i	i
CC(C)NC(=O)N(C)C[C@@H]1OCCCC[C@H](C)Oc2ccc(NS(=O)(=O)c3ccccc3)cc2C(=O)N([C@@H](C)CO)C[C@@H]1C	i	i	i	i
C[C@@H]1CN([C@H](C)CO)C(=O)c2cccc(NS(=O)(=O)c3ccccc3)c2O[C@@H]1CN(C)C(=O)Nc1ccc2c(c1)OCO2	i	i	i	i
COc1ccc(S(=O)(=O)N(C)C[C@@H]2Oc3ccc(NS(=O)(=O)c4cn(C)cn4)cc3C(=O)N([C@@H](C)CO)C[C@H]2C)cc1	i	i	i	i
COc1ccc([Si](C)(C)[C@@H]2[C@@H](CC(=O)N3CCC[C@H]3CO)O[C@]3(C(=O)N(Cc4ccc(I)cc4)c4ccccc43)[C@H]2C)cc1	i	i	i	i
C[C@H](CO)N1C[C@H](C)[C@@H](CN(C)Cc2ccc(C(F)(F)F)cc2)Oc2c(NC(=O)C3CCOCC3)cccc2C1=O	i	i	i	i
C[C@@H]1CN([C@H](C)CO)C(=O)CCCn2nncc2CO[C@@H]1CN(C)C	i	i	i	i
COc1ccc(CCNC(=O)c2ccnc(C(C)(C)C)c2)cc1OC	i	i	i	i
CNC[C@@H]1Oc2ccc(N(C)C)cc2CC(=O)N([C@@H](C)CO)C[C@H]1C	i	i	i	i
C[C@@H]1CN([C@H](C)CO)C(=O)c2cccc(NC(=O)c3ccncc3)c2O[C@@H]1CN(C)Cc1ccc(Oc2ccccc2)cc1	i	i	i	i
Cc1ccccc1-c1nnc(SCC(=O)Nc2ccc(F)c(F)c2)n1C	i	i	i	i
C[C@H](CO)N1C[C@H](C)[C@@H](CN(C)S(=O)(=O)c2cccs2)Oc2ccc(NS(C)(=O)=O)cc2C1=O	i	i	i	i
C=C1CC[C@@H](C)[C@](C)(CCc2ccoc2)C/C=C\C=C/1C(=O)O	i	i	i	/
Cc1ccccc1N(CC(=O)Nc1cccc2ccccc12)S(C)(=O)=O	i	i	i	i

Next section.
SMILES	p53 mut binder	STAT3 binder	c-Myc SMM	ID4 SMM
C[C@H]1CCCCO[C@H](CN(C)C(=O)CCC(F)(F)F)[C@@H](C)CN([C@@H](C)CO)C(=O)c2cc(NC(=O)c3ccccc3)ccc2O1	i	i	i	/
COc1cc(O)c2c(=O)c(O[C@@H]3O[C@H](CO[C@@H]4O[C@@H](C)[C@H](O)[C@@H](O)[C@H]4O)[C@@H](O)[C@H](O)[C@H]3O)c(-c3ccc(O)c(O)c3)oc2c1	i	i	i	/
COc1ccc(S(=O)(=O)N(C)C[C@H]2Oc3ccc(NS(=O)(=O)c4cccs4)cc3C(=O)N([C@H](C)CO)C[C@@H]2C)cc1	i	i	i	i
C[C@H](CO)N1C[C@H](C)[C@H](CN(C)C(=O)Nc2ccc(-c3cccs3)cc2)OCc2cn(nn2)CCCC1=O	i	i	i	i
COc1ccc(NC(=O)N(C)C[C@H]2Oc3c(NC(=O)Nc4ccc5c(c4)OCO5)cccc3C(=O)N([C@@H](C)CO)C[C@@H]2C)cc1	i	i	i	/
COc1cc(-c2oc3cc(O)cc(O)c3c(=O)c2O[C@@H]2O[C@H](CO)[C@@H](O)[C@H](O)[C@H]2O)ccc1O[C@@H]1O[C@H](CO)[C@@H](O)[C@H](O)[C@H]1O	i	i	i	i
CC(=O)N[C@@H](CSC/C=C(\C)CCC=C(C)C)C(=O)O	i	i	i	i
C[C@@H]1CCCCO[C@@H](CN(C)C(=O)CCC(F)(F)F)[C@@H](C)CN([C@H](C)CO)C(=O)c2cc(NS(=O)(=O)c3ccccc3)ccc2O1	i	i	i	i
COc1cc(C(C)CC(C)(O)CC(=O)O)oc(=O)c1C (stereo not drawn)	i	i	i	/
COc1ccc(CN(C)C[C@H]2Oc3ccc(NS(=O)(=O)c4ccc(OC)cc4)cc3CC(=O)N([C@@H](C)CO)C[C@H]2C)cc1	i	i	i	i
CC(/C=C/c1cccc(Oc2ccc(F)cc2)c1)N(O)C(N)=O (stereo not drawn)	i	i	i	/
COc1ccc(CN(C)C[C@@H]2Oc3ccc(NC(=O)NC4CCCCC4)cc3C(=O)N([C@H](C)CO)C[C@@H]2C)cc1	i	i	i	/
Cn1c(SCC(=O)Nc2cc(Cl)cc(Cl)c2)nnc1-c1ccc(Cl)cc1	i	i	i	i
COc1ccc(C2C(C(N)=O)=C(C)Nc3nc(SCc4ccccc4Cl)nn32)c(OC)c1 (stereo not drawn)	i	i	i	i
COc1cccc2oc3c(c(=O)c12)C(C(=O)O)=CC(CO)=CO3	i	i	i	/
Cc1noc(C)c1NC(=O)Nc1ccc2c(c1)C(=O)N([C@H](C)CO)C[C@H](C)[C@@H](CN(C)C(=O)C1CCCCC1)OCCCC[C@H](C)O2	i	i	+	i
C=CCNC(=O)[C@H]1[C@@H]2C(=O)O[C@@H](c3ccccc3)[C@@H](c3ccccc3)N2[C@@H](c2ccccc2OCCO)[C@]12C(=O)Nc1ccc(C#Cc3ccc(OC)cc3)cc12	i	i	i	i
Cc1noc(C)c1NC(=O)N(C)C[C@@H]1Oc2ncc(Br)cc2C(=O)N([C@H](C)CO)C[C@@H]1C	i	i	i	i
CC1CC(=O)C2=C(CCC3(O)C2C(=O)c2cccc(O)c2C3O)C1 (stereo not drawn)	i	i	i	i
C[C@H]1CN([C@@H](C)CO)C(=O)c2cc(NC(=O)Nc3ccc(F)cc3)ccc2O[C@@H]1CN(C)Cc1ccncc1	i	i	i	i
COC(=O)c1cc(OC)c(OC)cc1NC(=O)CN1CCCCC1	i	i	i	i
CCC(Oc1ccccc1)C(=O)Nc1cc2oc3ccccc3c2cc1OC (stereo not drawn)	i	i	i	i
C[C@H]1CCCCO[C@@H](CN(C)C(=O)Nc2ccc3c(c2)OCO3)[C@@H](C)CN([C@@H](C)CO)C(=O)c2cc(NS(C)(=O)=O)ccc2O1	i	i	i	i
C[C@H]1CN([C@@H](C)CO)C(=O)c2cccc(NC(=O)Nc3ccc(F)cc3)c2O[C@H]1CN(C)Cc1ccc(C(=O)O)cc1	i	i	i	i
Cc1ccc(C2(CCNCc3ccco3)CCOC(C(C)C)C2)cc1 (stereo not drawn)	i	i	i	i
C=CCOC(=O)C1=C[C@H](c2cn(C(C)=O)c3ccccc23)[C@@H](CCCO)[C@H](OCC)O1	i	i	i	i
C[C@H]1CN([C@@H](C)CO)C(=O)c2cc(NS(=O)(=O)c3cn(C)cn3)ccc2O[C@H]1CN(C)CC1CCCCC1	i	i	i	/
CNC[C@H]1OCCCC[C@@H](C)Oc2ccc(NC(=O)NC(C)C)cc2C(=O)N([C@H](C)CO)C[C@H]1C	i	i	i	i

Record cards, from the list above.
Results for Cc1noc(C)c1NC(=O)Nc1ccc2c(c1)C(=O)N([C@H](C)CO)C[C@H](C)[C@@H](CN(C)C(=O)C1CCCCC1)OCCCC[C@H](C)O2 → p53 mut binder = i; STAT3 binder = i; c-Myc SMM = +; ID4 SMM = i
Results for C[C@H]1CCCCO[C@H](CN(C)C(=O)CCC(F)(F)F)[C@@H](C)CN([C@@H](C)CO)C(=O)c2cc(NC(=O)c3ccccc3)ccc2O1 → p53 mut binder = i; STAT3 binder = i; c-Myc SMM = i; ID4 SMM = /
